# GIV Gai3 FP: inhibitors of GIV GBA-motif binding to rat Galpha-i3; P08753; 210,000 tested, 0.42% active; AID 1224905; Galpha-i3/FITC-GIV peptide fluorescence polarization, 90 min; active compounds read low; scaled: aluminum fluoride 0%, vehicle 100%; percent of control (FP), % (concentration not given with the values);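 active = replicate mean at 85% of control or lower, very high polarization wells dropped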;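 also: wells of about 15 µL received 100 nL stock; the first replicate is given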
# Target sequence (P08753 whole entry, looked up): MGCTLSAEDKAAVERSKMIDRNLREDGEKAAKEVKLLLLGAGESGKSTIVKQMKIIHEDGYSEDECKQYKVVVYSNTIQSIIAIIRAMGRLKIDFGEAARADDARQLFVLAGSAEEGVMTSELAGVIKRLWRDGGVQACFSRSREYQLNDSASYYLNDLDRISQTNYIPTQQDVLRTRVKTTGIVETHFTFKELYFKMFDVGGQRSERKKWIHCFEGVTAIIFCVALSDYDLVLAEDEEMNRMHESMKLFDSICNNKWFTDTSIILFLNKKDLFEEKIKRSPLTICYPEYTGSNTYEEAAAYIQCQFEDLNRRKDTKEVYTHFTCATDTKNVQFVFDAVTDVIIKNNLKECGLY
# Sa growth inh: inhibitors of Staphylococcus aureus growth at 42 °C; AID 720641; 170,000 tested, 0.53% active; relative growth, % (concentration not given with the values); S. aureus RN4220 growth, OD600, 20 h; active compounds read low;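 active = growth at 42 °C up to 50% and 20 or more points under that at 30 °C, or under 10% at both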;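 also: 300 nL library stock went into each well; scaled to the means of positive and negative controls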
# HCMV UL50-53 inh: cytomegalovirus nuclear egress complex inhibition. 190,000 tested, 0.15% active. HTRF UL50-UL53 interaction, normalized percent inhibition. inhibition, % (test concentration not listed);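 active = both replicates at 50% or more, plus weaker picks with an unusually low signal ratio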;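 also: stock transfer was 100 nL into about 20 µL; 0% = negative control wells and 100% = wells with untagged competitor protein; inactives centre near -12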
# Sa growth inh second temp: second read-out of Sa growth inh, no call of its own (marks repeat the call); relative growth, %; measured here: growth at 30 °C;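 optical density after 20 h as mean of two plates; 100% = untreated growth and lower means inhibition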
# Active calls of the source: *; · = no result given; & = joins results of further samples. Compounds were not picked by outcome; overall some 0.82% were active at least once.
SMILES,GIV Gai3 FP,Sa growth inh,Sa growth inh second temp,HCMV UL50-53 inh
O=C1CC(NC2CCN(C(=O)c3cccc(F)c3)CC2)C(=O)N1 (stereo not drawn),106.1,102.2,77.1,-9.3
COc1ccc(Cl)cc1NC(=O)N1CCN(c2ccc(=O)n(-c3ccccc3)n2)CC1,105.4,·,·,6.7
CCOC(=O)C1=C(CNc2cccnc2)NC(=O)NC1c1ccccc1 (stereo not drawn),103.2,108.0,94.6,·
Cn1c(SCc2ccc(F)cc2)nc2c([nH]c3ccccc32)c1=O,106.3,105.4,91.0,·
CCOC(=O)c1c(C)n(-c2ccccc2)c2ccc(OC(=O)COc3ccccc3)cc12,98.6,102.7,89.8,-26.7
CC(C)(O)C1Cc2cc3ccc(=O)oc3cc2O1 (stereo not drawn),102.4,98.1,78.9,-66.4
COc1ccc(S(=O)(=O)c2c(SC)nn(C)c2N)cc1,104.9,97.9,88.3,-30.1
COc1ccc(OCCOC(=O)c2cccs2)cc1,·,86.9,96.0,-26.3
COC(=O)c1sccc1NC(=O)c1cc(C)on1,100.3,102.2,94.0,-15.1
NC(=O)C1CCN(C(=O)COc2ccc(Cl)cc2Cl)CC1,98.1,93.4,78.1,-5.1
NC(=O)c1ccccc1SCc1ccccc1,103.7,118.4,95.0,4.4
COc1ccc(OC)c(C(=O)COC(=O)c2ccco2)c1,·,85.7,89.2,-34.7
COC(=O)C1=C(NC(=O)c2cccc(C)c2)CCS1,99.6,94.4,87.3,-21.1
CC(C)N(Cc1ccccc1)C(=O)CCS(=O)(=O)c1cc2c(cc1Cl)NC(=O)CO2,107.1,104.4,93.6,·
Cc1ccc(-c2cc(C(=O)Nc3c(C(=O)c4ccc(C)c(F)c4)oc4ccccc34)no2)cc1,101.0,102.3,87.5,0.8

# In a second layout: results already given.
# Results follow in this order: GIV Gai3 FP, Sa growth inh, Sa growth inh second temp, HCMV UL50-53 inh
- CC(C)(O)C1Cc2cc3ccc(=O)oc3cc2O1 (stereo not drawn)
  102.4, 98.1, 78.9, -66.4
- COc1ccc(S(=O)(=O)c2c(SC)nn(C)c2N)cc1
  104.9, 97.9, 88.3, -30.1

# Next structures:
SMILES,GIV Gai3 FP,Sa growth inh,Sa growth inh second temp,HCMV UL50-53 inh
NS(=O)(=O)c1ccc(-n2cccc2)cc1,109.0,103.2,89.4,10.2
O=C(Cn1cnc2c(cnn2CCO)c1=O)c1ccc(Cl)cc1,101.3,97.3,90.8,-12.5
Fc1ccc(-c2nnc(CSCc3cccc4ccccc34)o2)cc1,102.9,111.5,84.5,-23.6
CCS(=O)(=O)c1ccc(O)c(NC(=O)Nc2ccccc2)c1,·,94.5,91.2,-25.3
O=C(N/N=C/c1ccccn1)NC12CC3CC(CC(C3)C1)C2,106.5,95.3,89.2,-22.1
CC(C)CC(=O)NC1(C(F)(F)F)C(=O)Nc2c1c(=O)[nH]c(=O)n2-c1ccccc1 (stereo not drawn),102.4,101.0,105.2,34.4
Cc1ccc(C)c(CN2C(=O)c3ccccc3S(=O)c3ccc(C(=O)NCCc4ccc(Cl)cc4)cc32)c1 (stereo not drawn),99.2,98.0,92.8,-5.2
C[C@@H](O)[C@H]1C(=O)N2C(C(=O)O)=C(S[C@@H]3CN[C@H](C(=O)N(C)C)C3)[C@H](C)[C@H]12,98.3,-0.5*,0.2*,-2.1&-17.8
C/C(C/C(C)=C1/SC(=S)NC1=O)=C1\SC(=S)NC1=O,99.0,66.0,52.9,·
O=C(NCC(=O)N1CCN(C2CCS(=O)(=O)C2)CC1)c1ccc2c(c1)OCO2 (stereo not drawn),·,101.9,94.2,4.6
CCOc1ccc(OCCOc2ccc(CNCC(=O)N(C)C)cc2OCC)cc1,·,93.0,84.7,-13.5
O=C1C2ON(c3ccccc3)C(c3ccco3)C2C(=O)N1c1ccccc1 (stereo not drawn),98.8,117.7,87.4,·
C=CCN(c1ccc(C(=O)N2CCC(C(=O)OCC)CC2)cc1)S(C)(=O)=O,101.0,74.1,77.5,-29.5
CCCCNC(=O)c1ccc(-c2nc(CS(=O)(=O)c3ccc(C)cc3)c(C)o2)cc1,111.9,136.8,85.8,·
O=C(CN1CCN(C(=O)c2ccc(-c3ccccc3)cc2)CC1)N1CCCC1,·,105.1,100.8,13.9

# An excerpt from above in order of their number in Sa growth inh second temp, high to low.
mol,GIV Gai3 FP,Sa growth inh,Sa growth inh second temp
CC(C)CC(=O)NC1(C(F)(F)F)C(=O)Nc2c1c(=O)[nH]c(=O)n2-c1ccccc1 (stereo not drawn),102.4,101.0,105.2
O=C(Cn1cnc2c(cnn2CCO)c1=O)c1ccc(Cl)cc1,101.3,97.3,90.8
NS(=O)(=O)c1ccc(-n2cccc2)cc1,109.0,103.2,89.4
CCCCNC(=O)c1ccc(-c2nc(CS(=O)(=O)c3ccc(C)cc3)c(C)o2)cc1,111.9,136.8,85.8
CCOc1ccc(OCCOc2ccc(CNCC(=O)N(C)C)cc2OCC)cc1,·,93.0,84.7
C=CCN(c1ccc(C(=O)N2CCC(C(=O)OCC)CC2)cc1)S(C)(=O)=O,101.0,74.1,77.5
C/C(C/C(C)=C1/SC(=S)NC1=O)=C1\SC(=S)NC1=O,99.0,66.0,52.9

# Remaining list, next part:
SMILES,GIV Gai3 FP,Sa growth inh,Sa growth inh second temp,HCMV UL50-53 inh
Cc1cccc(OCC(=O)Nc2ccccc2OCc2cc(=O)n3cc(C)ccc3n2)c1,102.9,86.3,87.2,·
COC(=O)Cn1c2c(c3cc(C)ccc31)CCCC2,98.9,94.5,85.7,·
O=C(O)C1C2C=CC(O2)C1C(=O)Nc1ccc(S(=O)(=O)N2CCc3ccccc32)cc1 (stereo not drawn),104.1,93.9,107.3,-2.7
Oc1cccc2c1Cc1ccccc1-2,97.2,88.6,52.1,18.8
COc1ccc2c(c1)nc(CN1CCCCC1)n2C,110.6,·,·,-4.7
COc1ccc(C)cc1NC(=O)C(=O)NCC1(c2ccccc2)CCCC1,103.3,109.9,93.9,-7.7
CCCOC(=O)c1c(N)sc2c1CCCC2,·,86.0,85.6,-0.5
CCC(C#N)C12CC3CC(CC(C3)C1)C2 (stereo not drawn),·,104.8,88.4,0.5
COc1ccc(-c2noc(NC3CCCc4ccccc43)n2)cc1 (stereo not drawn),104.4,86.1,87.9,-21.1
COc1ccccc1N1CC(C(=O)OCn2nnc3ccccc3c2=O)CC1=O (stereo not drawn),·,98.1,80.1,-35.2
Cc1ccc2[nH]c(-c3ccccc3)c(CN3CCC(C)CC3)c(=O)c2c1,104.7&144.5,89.6,82.2,-31.2&-13.4
CCOC(=O)c1ccc(NC(=S)NCCn2cc(Br)cn2)cc1,99.4,96.4,94.6,-5.4
O=C(O)C1COc2ccccc2O1 (stereo not drawn),102.0,108.4,92.4,-12.0
O=C(Nc1ccccc1)c1cc2c(=O)n3ccccc3nc2s1,108.3,101.8,93.6,·
CCOC(=O)CSc1nc(-c2ccccc2)c(C#N)c(=O)[nH]1,101.9,116.7,104.5,8.6
CC(=O)N1CCN(Cc2nc3ccc(NC(=O)Cn4nc(C)c5ccccc5c4=O)cc3n2C)CC1,98.6,86.9,87.8,-18.7
N#CCSc1nc2ccccc2c(=O)n1CC1CCCC1,117.0,99.3,72.3,-6.1
O=C(c1cnc2ccccc2c1Nc1ccccc1F)N1CCOCC1,100.2,·,·,-12.4
CCOC(=O)c1ccc(-n2c(=S)sc3c(=O)[nH]c(C)nc32)cc1,96.1,106.7,80.2,-28.1
COc1ccc(-c2nc(CN3CCC(C(=O)NCc4ccc(F)cc4)CC3)c(C)o2)cc1OC,102.4,115.6,92.0,-23.4
CCc1ccc(NC(=O)CSc2nncn2C)cc1,·,116.8,89.8,0.5
Cc1ccc(CN2C(=O)c3c(-n4cccc4)c4cc(C)ccc4n3CC2(C)C(=O)NC2CCC(C)CC2)cc1 (stereo not drawn),108.2,·,·,-3.2
CC(=O)Nc1nonc1-c1nc2ccccc2n1Cc1ccccn1,·,110.7,83.5,-11.9
CC(=O)Nc1c(-c2ccc(C)cc2)c(C)nn1-c1ccc(C(=O)N2CCN(c3ccccn3)CC2)cc1,104.4,·,·,-2.2
Cn1c(=O)c(=O)n(C)c2cc(N3CCCC3)c(NC(=O)c3ccccc3Cl)cc21,95.9,105.6,87.7,-16.4
Cc1cc(-c2nn3c(C(C)C)nnc3s2)no1,102.2,·,·,-11.2
CCc1ccc(NC(=O)CSC2=Nc3ccccc3C3=NC(CCC(=O)NCc4ccccc4)C(=O)N23)cc1 (stereo not drawn),105.4,115.1,102.3,·
CNC(=O)CN(C#N)c1nc(N(C)C)nc(N(C)C)n1,103.8,111.4,74.3,-9.6
CC(C)NC(=O)c1cc2c(s1)CS(=O)(=O)C2,110.7,95.9,96.2,5.4
Cc1nn(-c2ccccc2)c2c1N(CCCC(=O)NC(C)c1ccccc1)C(=O)CS2 (stereo not drawn),96.6,115.4,84.3,·
CCN(CC)S(=O)(=O)c1ccc2c(c1)N(CC(=O)N1CCN(c3cccc(C)c3C)CC1)C(=O)CO2,111.4,128.3,101.0,·
Cc1nc(N2CC(O)CC2C(N)=O)c2c(-c3ccccc3)csc2n1 (stereo not drawn),·,87.9,100.6,1.1
O=C(Nc1cccc(F)c1)c1nnc(CSCC(=O)N2CCN(c3ccccn3)CC2)s1,102.5,·,·,-30.2
c1cc(CNC2CCCC2)ccn1,103.4,88.4,85.5,-24.4
COc1ccc(-c2noc(-c3ccc(N4CCOCC4)c([N+](=O)[O-])c3)n2)cc1OC,98.4,107.0,88.6,-7.4
CC1=C(C#N)C(=O)N(CCc2ccccc2)C(=O)/C1=C/c1ccc(-c2ccc3c(c2)COC3=O)o1,106.8,90.6,76.4,-36.8
CCN1C(=O)/C(=C2/SC(c3ccccc3)=C3N=CC(C)=CN32)SC1=S,121.6,97.7,93.0,-2.7
CC(C)N1CC2(c3ccccc31)N1CC3(C)CN2CC(C)(C1)C3=O (stereo not drawn),99.2,88.8,89.0,·
Cc1oc(-c2ccc(Cl)cc2)nc1CN1CCCC(C(=O)NCCc2ccc(Cl)cc2)C1 (stereo not drawn),104.6,111.8,85.2,-22.2
COc1cccc(NC(=S)N(C2CCCCC2)C(C)c2ccco2)c1 (stereo not drawn),101.4,89.8,63.7,-16.7
COc1ccc(CCNC(=O)CN(c2ccc(OC)c(OC)c2)S(=O)(=O)c2ccc(C)cc2)cc1OC,103.9,·,·,10.4
OCc1nc(-c2cc(C(F)(F)F)cc(C(F)(F)F)c2)cs1,99.0,105.5,88.8,-0.4
COc1cc(CN(C(=S)NCC(=O)N2CCCC2)C2CCCC2)cc(OC)c1OC,101.9,96.9,87.2,·
CC(C)CN(CCCNC(=O)c1cc(=O)[nH]c2ccc(S(=O)(=O)N3CCCCCC3)cc12)CC(C)C,97.8,115.5,81.4,·
O=C(NCCS(=O)(=O)N1CCN(c2ccc(F)cc2)CC1)C1c2ccccc2Oc2ccccc21,104.2,·,·,-13.0
Cc1ccc(Nc2nnc(-c3ccc(C(=O)NCCO)cc3)c3ccccc23)c(C)c1,101.1,·,·,-73.3
COc1ccc(Nc2nnc(-c3cc4c(ccc5ccccc54)oc3=O)s2)cc1,101.9,107.6,89.7,-24.7
CCOCCCNC(=O)CCC(=O)NNc1nc2ccccc2c2nc(-c3ccccc3)nn12,101.9,100.8,91.7,-7.5
CN1/C(=C\C=C(/C#N)c2nc3ccccc3[nH]2)C(C)(C)c2ccccc21,·,121.9,83.6,-13.2
CCn1c(=O)c(=O)n(CC)c2cc(N3CCCCC3)c(NC(=O)c3ccccc3OC)cc21,103.1,121.6,92.3,-7.4
CC1(C)CC(=O)C=C(SCC(=O)Nc2ccccc2Cl)S1,102.8,98.1,78.8,-26.7
COc1ccc(OCc2nc3ccccc3n2Cc2ccc(C(C)(C)C)cc2)cc1,102.9,99.2,91.4,-20.8
O=c1c2sccc2n2c(SCc3cccc(F)c3)nnc2n1Cc1ccccc1,101.1,·,·,-21.4
O=P1(NCc2ccco2)C=C(c2ccccc2)OC(c2ccccc2)=C1,·,102.7,71.3,12.9
CCOC(=O)c1c(NC(=S)N2CCc3ccccc32)sc2c1CCN(C(=O)OCC)C2,107.5,90.2,87.2,-44.5
O=C(O)CCc1ccc(S(=O)(=O)Nc2cc(C(F)(F)F)ccc2N2CCCC2)cc1,·,102.7,93.5,7.0
Cc1cc(=O)n2[nH]c(CC(=O)O)nc2n1,102.3&104.8,110.6,97.2,-11.3&-1.9
CC1CCN(c2nc3ncnc(SCC(=O)NC4CCCCC4)c3s2)CC1,100.5,·,·,-15.4
CN(C)C(=O)c1cc2c(=O)n3ccccc3nc2n1C,107.2,110.8,90.2,·
CN1CCC(NC(=S)NC2CC2)CC1,104.0,130.3,93.8,8.0
O=C(Cn1ncn2cccc2c1=O)N1CCCCC1,103.2,103.1,96.0,·
N#CC1=C(SCC(N)=O)NC2=C(C(=O)CCC2)C1c1ccc2c(c1)OCO2 (stereo not drawn),111.4,100.8,82.4,-36.1
CCOc1ccc(NC(=O)c2cc(-c3ccc(C)c(F)c3)on2)c([N+](=O)[O-])c1,101.2,102.5,90.8,-4.9
